# Rango release inh: inhibitors of RanGTP-induced Rango-importin beta complex dissociation | O95149+P62826 | 340,000 compounds, 0.071% hits | Biochemical FRET Rango-importin beta, RanGTP-induced dissociation | Potency, µM (series often up to 46.1 µM), inactives show at the top dose activity change, negative = inhibition; active means falling FRET ratio curve, often poorly fitted, with flat reads before Ran was added; inconclusive means other falling curves, or compound fluorescence or quenching; inactive means flat or rising ratio curve;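 also: potency is read from the fitted curve at half-maximal effect; % of control where 0% means no effect; nearly all actives have a fitted effect of over 45% in size; -100% = wells without RanGTP and RCC1; the record marks most hits as doubtful in a second field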
#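 Recombinant Rango FRET biosensor (EYFP–snurportin 1 IBB–cerulean CFP10) at 0.1 uM premixed with 0.25 uM importin beta in PBS, 1 mM DTT, 0.02% Tween-20, 0.1% BSA. Compound added 5 min; RanGTP-RCC1 (0.6 uM Ran, 2 mM GTP, 0.2 uM RCC1) then triggers release, read at 45 min.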
# GLA inh pH 4.5: blocks human alpha-galactosidase A at pH 4.5; P06280; purified enzyme, 4-MU-alpha-Gal fluorescence, pH 4.5; activity change, negative = inhibition, % at 105 µM; 230,000 tested, under 10 active; AID 1467; inconclusive = small, poorly fitted or top-dose-only inhibition, or a rising curve; inactive = flat fitted curve, though single readings scatter; no compound was filed as active;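 also: 0% = full activity with enzyme and -100% = basal without enzyme; dose as in the result columns while the protocol names 77 µM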
# Target sequence (P06280 whole entry, looked up): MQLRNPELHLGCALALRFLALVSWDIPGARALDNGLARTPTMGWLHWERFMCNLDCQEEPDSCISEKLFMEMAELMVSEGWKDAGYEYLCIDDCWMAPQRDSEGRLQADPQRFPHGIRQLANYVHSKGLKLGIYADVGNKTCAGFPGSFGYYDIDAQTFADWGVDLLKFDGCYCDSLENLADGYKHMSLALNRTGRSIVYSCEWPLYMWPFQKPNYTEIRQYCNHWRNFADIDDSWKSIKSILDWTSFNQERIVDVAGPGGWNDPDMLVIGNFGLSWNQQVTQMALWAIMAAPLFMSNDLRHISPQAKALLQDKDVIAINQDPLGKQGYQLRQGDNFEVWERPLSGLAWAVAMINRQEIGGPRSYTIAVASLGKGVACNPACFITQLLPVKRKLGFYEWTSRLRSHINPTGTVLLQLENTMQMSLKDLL
# Rango complex inh: Rango-importin beta binding inhibition; Q14974; Rango CFP/YFP FRET sensor + importin beta, 45 min; Potency, µM (titrated, usually from 92.2 µM), for the others: top-dose inhibition of complex formation; 340,000 compounds, 0.031% hits; AID 540263; active = rising FRET ratio curve, often small or poorly fitted; inconclusive = mostly compound fluorescence or quenching in the first reads; inactive = flat curves in all reads;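 also: potency is read from the fitted curve at half-maximal effect; 0% = DMSO wells and 100% = buffer wells lacking importin beta; nearly all actives have a fitted effect of over 15% in size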
#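 FRET biosensor (snurportin 1 IBB flanked by EYFP and cerulean), 50 nM, with compound 5 min, then 0.125 microM importin beta in PBS, 1 mM DTT, 0.02% Tween-20, 0.1% BSA. CFP/YFP ratio read after 45 min at room temperature; pre-read flags interference.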
# miR-21 FLuc: miR-21 reporter, rising signal | HeLa miR-21 FLuc reporter, luciferase, 48 h | Potency, µM (highest dose often 38.3 µM), for the others: top-dose reporter change, positive = more light | 340,000 tested, under 10 active; active = well fitted rising curve with a large enough effect; inconclusive = small, poorly fitted or top-dose-only effect; inactive = no such curve, though single readings can be large or run the other way;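 also: % of control where 0% means no effect; miR-21 action dims this reporter so a rising signal means less miR-21 action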
#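 HeLa cells stably expressing CMV-driven firefly luciferase with a downstream miR-21 binding sequence, endogenously expressing miR-21, were treated with titrations (up to about 40uM final) for 48 hours at 37 degree Celsius. Luciferase luminescence was read after lysis.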
# * = called active by the depositor; ? = inconclusive; . = not tested or not shown; & = joins results of further samples; [ ] = another dose, or the depositor's remark.
molecule,Rango release inh,GLA inh pH 4.5,Rango complex inh,miR-21 FLuc
Cc1ccc(NS(=O)(=O)c2ccc(CCC(=O)NCCCOC(C)C)cc2)cc1,11%,-1,-0.5%,-13%
C=CCn1c(C(C)NC(=O)c2ccccc2C)n[nH]c1=S (stereo unspecified),-5%,4,0.9%,-5%
O=C1N(Cc2cccnc2)C[C@@H]2C[C@@H](c3ccc4nsnc4c3)N3CCC[C@@]123,20%,6,-3.8%,0%
Fc1ccc(NC(=S)N2CCCC2)cc1,-10%,.,-0.4%,.
C=CCN(Cc1nc(-c2ccc(OC)cc2)no1)C(=O)c1ccc2c(c1)OCO2,-9%,.,0.3%,-3%
Cc1ccc(-n2c(=O)c3sccc3n(Cc3cc(=O)n4cc(Cl)ccc4n3)c2=O)cc1F,-11%,5,-4.7%,2%
NC(=O)c1cc([N+](=O)[O-])ccc1NCc1ccc(O)cc1,6%,.,1.1%,.
CCN1C(=O)[C@H]2[C@@H](c3ccc(-c4ccc(F)cc4)c(OC)c3)N3CCCC[C@@]3(C(=O)OC)[C@H]2C1=O,-11%,.,-3.2%,.
O=C(Cn1nc(C(=O)O)c2ccccc2c1=O)NCC1CCCO1 (stereo unspecified),19%,0,1.8%,2%
Cc1cccc(/C=N/Nc2cc(N3CCOCC3)nc(N3CCOCC3)n2)c1,0%,-13,0.8%,-12%
CC(=O)c1ccc(OCCCCOc2ccc(C(C)=O)cc2)cc1,7%,.,0.3%,4%
Cc1ccc(OCC(=O)N/N=C\c2ccc(C)o2)c([N+](=O)[O-])c1,-16%,-6,3.6%,-3%
Clc1ccc(/C=N/c2c(-c3ccco3)nc3ccccn23)cc1,?,5,?,-4%
COc1ccc(CN2C(=O)CS(=O)CC2=O)cc1OC,24%,5,?,-4%
COc1ccc(C2=NS(=O)(=O)N(C)C(C(=O)NC(C)c3ccccc3)=C2)cc1 (stereo unspecified),0%,.,?,4%&27%
CNC(=S)N(Cc1cccs1)Cc1cc2cc(OC)c(OC)cc2[nH]c1=O,19%,-7,-5.9%,-5%
CCNC(=S)NNC(=O)c1csc2ccccc12,23%,-2,4.6%,-18%
Cc1ccc2[nH]c(=O)c(CN(CCCN3CCOCC3)Cc3nnnn3C3CCCC3)cc2c1,?,4,?,-4%
COC(=O)c1ccc(C)c(NC(=O)CCn2[nH]c(=O)ccc2=O)c1,-6%,.,-2.8%,.
COc1ccc(CN2CCN(Cc3cccc(OC)c3)C(CCO)C2)cc1 (stereo unspecified),-7%,2,-2.6%,-5%
COCCCNC(=S)N1CCCC(c2nc3cc(C)c(C)cc3[nH]2)C1 (stereo unspecified),-3%,2,-1.2%,2%
CC(=O)N1CCN(S(=O)(=O)c2cccc(C(=O)OCC(=O)N3CC(=O)Nc4ccccc43)c2)CC1,2%,-4,1.6%,4%
CC(C)c1ccc(CCNC(=O)c2ccc([N+](=O)[O-])cc2)cc1,12%,-1,-1.5%,-5%
CCn1c(=O)n(CC)c2cc(NC(=O)CSc3ccc([N+](=O)[O-])cn3)ccc21,28%,.,4.1%,5%
Cc1cc2c(c(=O)n1CC1CCCO1)C(c1ccc3c(c1)OCO3)C(C#N)=C(N)O2 (stereo unspecified),1%,-5,3.5%,-1%
Cc1noc(/C=C/c2ccco2)c1S(=O)(=O)N1CCC(C(=O)N(C)Cc2ccccc2)CC1,11%,-5,0.0%,-12%
CN(c1ccccc1C(=O)Nc1ccc(CC#N)cc1)S(=O)(=O)c1ccccc1,0%,.,-2.4%,0%
Clc1ccc(OCCCn2cncn2)cc1Cl,0%,3,0.3%,-10%
Cn1cccc1/C=C1\SC(=S)N(NC(=O)c2ccccc2Cl)C1=O,?,0,?,-11%
CC1CCN(S(=O)(=O)c2ccc(C(=O)NCc3ccc4c(c3)OCO4)cc2)CC1,0%,9,-4.9%,1%

# Following part
molecule,Rango release inh,GLA inh pH 4.5,Rango complex inh,miR-21 FLuc
Cc1cccc(C(=O)Nc2ccc(C(=O)/C=C/c3cccs3)cc2)c1,-3%,-20,5.1%,-17%
Fc1ccccc1-c1nc(-c2ccncc2)no1,-8%,.,0.3%,-44%
C[C@@H]1CN([C@H](C)CO)C(=O)c2cc(NC(=O)Nc3ccc(C(F)(F)F)cc3)ccc2O[C@H]1CN(C)Cc1ccc(Cl)c(Cl)c1,1%,.,1.3%,.
CC(C)(CO)NS(=O)(=O)c1ccc2c(c1)C(=O)c1cc(S(=O)(=O)NC(C)(C)CO)ccc1-2,0%,-1,-2.1%,1%
O=C(CCN1CCCCCC1)Nc1ccc2c(c1)OCCO2,-6%,-1,2.0%,-6%
Cc1ccc(NC(=O)Cn2c(=O)cnc3ccccc32)cc1S(=O)(=O)N1CCOCC1,-2%,.,-0.3%,.
COc1ccc(CC(=O)O/N=C(\N)c2ccc(OC)cc2)cc1,-13%,2,0.2%,-33%
COc1cc(CC(=O)Nc2sc3c(c2C(N)=O)CCCC3)cc(OC)c1OC,-4%,.,2.9%,-3%
C=CCn1c(SCC(=O)NC(=O)c2cccc([N+](=O)[O-])c2)nnc1-c1ccccc1F,36%,13,-1.0%,-4%
CN(Cc1cccs1)CC(O)COCc1ccco1 (stereo unspecified),6%,6,0.2%,-8%
CCC(=O)N1c2ccccc2-c2nnc(SC)nc2OC1c1ccc(OC)c(OC)c1 (stereo unspecified),-17%,2,6.3%,-6%
Nc1nc(NCCO)nc(NC2CCCCC2)c1[N+](=O)[O-],14%,.,-2.7%,-21%
O=C(O)Cc1sc(NCCc2ccccc2)nc1-c1ccc(F)cc1,12%,.,-0.8%,-13%
O=S(=O)(NCC(c1ccco1)N1CCCCC1)c1ccccc1C(F)(F)F (stereo unspecified),5%,.,0.0%,.
Oc1ccc(N=Nc2n[nH]c(-c3ccc(Cl)cc3)n2)cc1,0%,-2,1.4%,-25%
Cc1ccc(-n2nc3ccc(NC(=O)C(C)C)cc3n2)cc1,-16%,15,6.0%,-57%
CCOC(=O)c1cn2nc(Oc3ccc(C)cc3)ccc2n1,11%,-6,2.7%,-51%
O=C(O)c1ccc(/C=N/Nc2nnnn2-c2ccccc2)cc1,-10%,-11,-1.9%,-1%
O=C(Cn1cc(C(F)(F)F)cc(Cl)c1=O)NCC1COc2ccccc2O1 (stereo unspecified),11%,.,3.1%,.
CC(=O)OC1=C(C#N)Cn2ccc3cccc1c32,.,1,.,-3%
CCOC(=O)N1CCN(C(=O)c2ccc(N(C)S(C)(=O)=O)cc2)CC1,11%,2,3.0%,3%
C=COC(=O)CSc1nc(-c2cccs2)ccc1C#N,?,5,?,-64%
c1ccc2sc(Cc3nnc4n3CCCCC4)nc2c1,-9%,3,-2.1%,-15%
Cc1cnc(NC(=O)C2CCC(C(C)(C)C)CC2)s1 (stereo unspecified),14%,.,-1.2%,-14%
COc1ccccc1NC(=O)C1C2C=CC(C2)C1C(=O)NCc1cccnc1 (stereo unspecified),-17%,.,0.1%,-1%
Cn1c(O)c(C=Nc2ccc(Cc3ccncc3)cc2)c(=O)n(C)c1=O,.,-2,.,-3%
CCc1nnc2n1N=C(c1ccc(-c3cc(Cl)ccc3Cl)o1)CS2,9%,1,-5.1%,-20%
Cc1[nH]c(-c2ccc(F)cc2)cc1C(=O)N1CCN(c2ccccc2F)CC1,2%,.,1.2%,10%
CCOC(=O)c1ccc(N2C=C(C(=O)OC)C(c3ccc(OC)c(O)c3)C(C(=O)OC)=C2)cc1,-8%,.,-1.3%,-4%
COC(=O)c1cc(NC(=S)Nc2cc(Cl)cc(Cl)c2)cc(C(=O)OC)c1,1%,-6,1.1%,-2%

# Next entries
molecule,Rango release inh,GLA inh pH 4.5,Rango complex inh,miR-21 FLuc
c1ccc(-n2c3ccccc3c3ccccc32)cc1,12%,-3,-1.9%,-1%
CCCCNc1nc2ccccc2[nH]1,0%,8,-0.1%,-3%
CCC(C)(C(=O)Nc1c(C)cccc1C)N(C)C(=O)c1ccc2ccccc2n1 (stereo unspecified),-1%,2,0.1%,-1%
CCc1ccc(NC(=O)CN(C)S(=O)(=O)c2ccc3[nH]c(=O)oc3c2)cc1,-8%,.,-1.5%,-6%
O=C(Nc1ccc(S(=O)(=O)N2CCCCC2)cc1)C1CCCN(C(=O)c2ccc(Cl)cc2)C1 (stereo unspecified),1%,3,0.1%,?
Cn1c(CN2CCCC2)nc2cc(NC(=O)C3CCCCC3)ccc21,0%,12,2.1%,-9%
O=C(CN1CCCCCCC1)N/N=C/c1ccc(F)cc1F,0%,0,0.2%,-1%
C=CCn1c(C)cc(C(=O)Cn2c(C(C)O)nc3ccccc32)c1C (stereo unspecified),-1%,5,-0.6%,4%
NC(N)=N/N=C/c1ccc2cccc(OCc3ccccc3)c2n1,-11%,-11,3.3%,26%
CCN(C(=O)CCS(=O)(=O)c1cccc2nsnc12)c1cccc(C)c1,0%,.,2.2%,-1%&-2%
O=C(NCCCN1CCCC1=O)C(=O)Nc1cccc(F)c1,2%,.,-1.9%,.
COc1ccccc1N(CC(=O)N/N=C/c1c(O)ccc2ccccc12)S(C)(=O)=O,?,0,?,28%
Cc1cccc(NC(=O)C2CC(=O)n3ncnc3N2)c1 (stereo unspecified),-3%,-5,0.0%,0%
COc1ccc(C(=O)N/C(=C\c2ccco2)C(=O)NCc2ccco2)cc1,-12%,.,-0.6%,-2%
CCCNS(=O)(=O)c1ccc(OCC(=O)NCc2ccc3c(c2)OCO3)cc1,-13%,-18,0.7%,-1%
Cc1ccc(S(=O)(=O)N(C)c2nc3ccccc3n3c(C(C)C)nnc23)cc1,-4%,.,0.2%,-11%
Fc1cccc(Cl)c1CSc1ncn[nH]1,21%,3,-1.9%,-4%
O=[N+]([O-])c1ccc(-c2csc(N3CCCCCC3)n2)cc1,5%,.,3.4%,-25%
CCOc1ccc(C(=O)NCc2ccccn2)cc1,9%,2,0.4%,-33%
CN(CC(=O)Nc1ccccc1C(=O)NC1CC1)Cc1cccs1,-18%,.,2.2%,.
COCCN1C(=O)N[C@@H](c2ccc(Br)cc2)C(C(=O)OC)=C1C,.,-11&4,.,0%
O=C(COc1ccc(F)cc1)Nc1cc(S(=O)(=O)N2CCCCC2)ccc1N1CCCCC1,7%,.,?,.
CCc1nn2cc(C(=O)c3cc(Cl)ccc3O)cnc2c1-c1ccc(F)cc1,-2%,-7,0.6%,-13%
CN(C)CCCNC(=O)c1ccc(Cl)c(S(=O)(=O)N(C)c2ccccc2)c1,6%,3,3.5%,0%
CCCCNC(=O)Nc1ncn[nH]1,-2%,-9,3.0%,0%
Cc1ccc(SC(C)C(=O)NCC(C)C)cc1 (stereo unspecified),-13%,5,0.6%,-7%
COc1ccc(OCC(=O)Nc2ccc(S(=O)(=O)N3CCOCC3)cc2)cc1,-12%,-2,-3.0%,-3%
CCN1N=C(c2ccccc2)CCC1=O,5%,.,1.2%,-3%
Cc1ccccc1C(=O)NNC(=S)NC(=O)COc1ccccc1,7%,0,0.9%,0%
COc1ccc(CCCc2nnc(SCC(=O)N/N=C\c3ccc(O)c(OC)c3)o2)cc1C,12%,-4,-3.2%,-23%

# Carrying on:
molecule,Rango release inh,GLA inh pH 4.5,Rango complex inh,miR-21 FLuc
CCOC(OCC)c1cn(Cc2ccc(C(=O)c3ccccc3)cc2)nn1,-3%,.,-1.5%,9%
O=S(=O)(c1ccc(C2CCCCC2)cc1)N1CCCC1,5%,1,1.5%,0%
O=C(CSc1nc(=O)n2ccccc2n1)NC1CCCCC1,0%,.,-0.8%,.
CCN(CC)S(=O)(=O)c1ccc2nc(NC(=O)c3ccco3)sc2c1,-6%,-1[21.1 µM],-1.2%,-23%
CCCNCc1cc(OCC)c(OCC(=O)Nc2ccccc2)cc1Br,-11%,-6,-1.2%,-1%

# Source: PubChem (National Center for Advancing Translational Sciences (NCATS))

# The list is partial, so the mix of outcomes need not match the whole.
